Rce1 inh: yeast Rce1p protease inhibitors, primary screen, biochemical, fluorescence, cell-free homogeneous. CAAX prenyl protease 2 (Saccharomyces cerevisiae (strain ATCC 204508 / S288c)), Q03530. yeast membranes, quenched prenylated peptide cleavage fluorescence. calls only. hit rate 0.27% among 290,000;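 active = fall in fluorescence gain of 50% or more versus controls, with final raw signal at or below 3038400; inconclusive = same 50% fall but final raw signal above 3038400; inactive = fall in fluorescence gain under 50%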;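 also: plate controls were neutral control wells for no effect and wells lacking membranes for full effect; tested at 10 µM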
Yeast UUG start: modulators of yeast start codon fidelity, primary screen, whole organism, S. cerevisiae, single point, plate reader; S. cerevisiae UUG-firefly luciferase reporter, luminescence/redox ratio; activity score, % at 18.7 µM; hit rate 0.13% among 350,000;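 active = replicate mean at a twofold rise or more, about +100% in these data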;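 also: firefly luciferase made from a UUG start codon reports start codon fidelity; reporter light over untreated wells divided by growth signal over untreated wells; some hits fall short of that in this replicate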
PABP FP inh: PABP poly(A) RNA binding inhibitors, primary screen, biochemical, fluorescence polarization, uHTS | hit rate 1% among 290,000 | inhibition, % at 35 µM;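 active = 50% or more with normal probe brightness, or confirmed in later tests; inconclusive = above 50% with abnormal brightness, or retests that disagree; inactive = below 50% or failed in later tests; about a fifth of its hits are not listed in these tables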;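 also: calls also rest on retests at 20 µM and on dose response follow-up; controls were probe without protein and protein plus probe with vehicle; some compounds called inactive have numbers as strong as hits; many hits fall short of the cut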
Target sequence (P11940 whole entry, looked up): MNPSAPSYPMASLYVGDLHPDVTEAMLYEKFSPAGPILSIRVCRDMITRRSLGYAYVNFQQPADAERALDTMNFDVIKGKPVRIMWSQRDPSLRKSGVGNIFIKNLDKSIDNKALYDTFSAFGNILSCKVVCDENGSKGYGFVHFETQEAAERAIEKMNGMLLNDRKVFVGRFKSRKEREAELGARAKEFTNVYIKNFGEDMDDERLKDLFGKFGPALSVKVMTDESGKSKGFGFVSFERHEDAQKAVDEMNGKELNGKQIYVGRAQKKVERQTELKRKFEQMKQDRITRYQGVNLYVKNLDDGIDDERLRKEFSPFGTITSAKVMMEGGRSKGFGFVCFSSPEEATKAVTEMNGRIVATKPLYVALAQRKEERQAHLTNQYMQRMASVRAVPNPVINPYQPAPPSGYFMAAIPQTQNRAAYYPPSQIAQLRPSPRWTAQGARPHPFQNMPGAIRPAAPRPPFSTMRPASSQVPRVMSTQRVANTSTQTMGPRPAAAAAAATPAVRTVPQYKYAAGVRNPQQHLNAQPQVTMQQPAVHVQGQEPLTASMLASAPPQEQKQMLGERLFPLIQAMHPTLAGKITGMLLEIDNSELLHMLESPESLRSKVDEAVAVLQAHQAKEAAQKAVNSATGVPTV
eIF4H inh: human eIF4H binding inhibitors, primary screen, translation initiation inhibitor project, biochemical, uHTS, fluorescence polarization; inhibition, % at 35 µM; hit rate 0.94% among 290,000; eIF4H fluorescence polarization binding assay; AID 2012, 2009;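 active = 50% or more with normal probe brightness, or confirmed in later tests; inconclusive = above 50% with abnormal brightness, or retests that disagree; inactive = below 50% or failed in later tests; about a fifth of its hits are not listed in these tables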;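 also: calls also rest on retests at 20 µM and on dose response follow-up; 0% = protein and probe with vehicle and 100% = probe without protein; strong numbers were not always called active; many hits fall short of the cut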
Env fusion inh: inhibitors of HIV-1 Env-driven cell-cell fusion, primary screen, HeLa-JRFL effector, CEM21 target cells, luciferase; inhibition, % at 12.3 µM; hit rate 1.1% among 360,000; AID 651610, 2012;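 active = mean replicate inhibition score of at least 50 and every replicate individually at or above 50; inconclusive = only one of the two criteria met; inactive = mean below 50 and not all replicates reaching 50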;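 also: 0% = plate neutral controls and 100% = maraviroc near 300 nM; one replicate is shown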
MT1-MMP act inh: blockers of MT1-MMP proenzyme processing, primary screen, HT1080 RFP-PRO-GFP cells, GFP/RFP fluorescence | Matrix metalloproteinase-14 (Homo sapiens), P50281 | GFP/RFP ratio fluorescence, overnight; percent of plate control window, DMSO zero | GFP/RFP ratio change, % at 20 µM | hit rate 0.061% among 360,000 | AID 651647, 2012;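 active = GFP/RFP ratio change of at least 30% with cell ATP level not reduced by more than half and red fluorescence within 50% of control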; also: strong numbers were not always called active
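Material: RFP-PRO-GFP reporter HT1080 cells. Dosing: single-point 20 µM compound, 1% DMSO. Controls: DMSO and RFP-L50D-GFP cell wells. Timing: cells overnight before dosing, compound overnight, 37 °C, 5% CO2. Measure: GFP/RFP fluorescence ratio.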
CSC inhib: cancer stem cell viability inhibitors, primary screen, luminescence. cancer stem cell-like cells viability. inhibition, % at 7.5 µM. hit rate 1.1% among 300,000. AID 2717, 2010;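 active = mean at 75% or more and at least half the replicates too; inconclusive = mean and replicates disagree; tested in HMLE shEcad cells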;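 also: 0% = median of negative and 100% = median of positive control wells; the first replicate is given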
eIF4H inh retest: also measured in eIF4H inh; calls as there; inhibition, %; compound at 20 µM; confirmation average;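 mean of two retest wells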
PABP FP inh retest: further read-out of PABP FP inh, marked with its call; inhibition, %; compound at 20 µM; confirmation repeats;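 mean of two retest wells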
MT1-MMP act inh RFP: further read-out of MT1-MMP act inh, marked with its call; RFP signal change, %; measured here: RFP expression control read;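 0 = vehicle wells; hits needed this value within 50% of zero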
* = called active by the depositor; i = inactive; ? = inconclusive; . = no result given; & = joins results of further samples.

SMILES	Rce1 inh	Yeast UUG start	PABP FP inh	eIF4H inh	Env fusion inh	MT1-MMP act inh	MT1-MMP act inh RFP	CSC inhib	others
Cc1cc(C(F)(F)F)n2nc(C)c(-c3ccc(Cl)cc3)c2n1	i	3	15	0	-22	3	4	4
Cc1ccc(C(=O)NC(=S)Nc2ccc(CN3CCCCC3)cc2)c(C)c1	i	.	-5	-3	-19	-2	-3	53
CC(C)=NNC(=O)CN1C(=O)NC2NC(=O)NC21 (stereo not given)	i	-8	-22	16	.	-1	7	4
Cc1c(CC(=O)O)c(=O)oc2c(C)c(OCc3ccccc3)ccc12	i	-5	19	-4	-8	2	3	-1
O=C(O)c1cccc(N/N=C/c2ccc(F)c(F)c2)c1	i	-4	9	-3	-80	3	5	-11
O=C(OCc1nnc(-c2ccc([N+](=O)[O-])cc2)o1)C1CC(=O)N(CCc2ccccc2)C1 (stereo not given)	.	-1	.	.	.	3	6	5
CCOC(=O)c1nn(-c2ccc(C)cc2)c(=O)c2c(N)scc12	i	-5	-1	4	.	4	4	-7
O=C(CCc1[nH]c2ccccc2c1Sc1ccccc1)NCCO	i	.	4	-1	-25	1	-4	-12
O=c1c2ccccc2nc(SCc2ccccc2F)n1C1CCCC1	i	-5	14	-2	7	5	4	-3
CCOC(=O)CCSCC(=O)Nc1cc(C)on1	i	-12	.	.	-28	0	4	-3
COc1ccc(C2N=C(N)N=C(N)N2c2ccc(C)cc2)cc1 (stereo not given)	i	-13	7	-2	-34	-10	-2	17
Cc1c(CC(=O)N[C@H](C(=O)O)C(C)C)c(=O)oc2cc3c(cc12)CCC(C)(C)O3	?	-4	3	-6	-35	-1	1	1
O=C(Nc1ccccc1)c1ccc(-c2ccc([N+](=O)[O-])cc2)o1	i	.	16	-10	-24	7	3	.
CCN(CC(=O)NCc1cccs1)C(=O)c1cc(=O)[nH]c2ccccc12	.	-8	.	.	.	-1	-1	-13
CCc1ccc2c(c1)NC(=O)C2(C)Cc1ccccc1OC (stereo not given)	.	-2	.	.	-1	1	-3	.
O=C(Nc1nnc(-c2ccc(Cl)cc2)o1)c1nc2ccccc2s1	i	-6	-4	-6	5	0	2	99*
CCOC(=O)c1c(N2C(=O)C=CC2=O)sc(C)c1C	i	-11	7	-3	.	-5	3	30
Cc1cc(=O)oc2cc(OCC(=O)N/N=C/c3ccccc3[N+](=O)[O-])ccc12	i	-10	18	27	-14	-6	-2	21
Cc1cc(OCc2cc(C(=O)NC3CCC3)no2)cc(C)c1Cl	i	-23	-8	-4	.	3	-1	6
C/C(=N/O)c1cccc(N2Cc3ccccc3C2)c1	i	-13	3	4	-39	-7	2	-10

In the list so far, 2 have an aryl methoxy group:
SMILES	Rce1 inh	Yeast UUG start	PABP FP inh	eIF4H inh	Env fusion inh	MT1-MMP act inh	MT1-MMP act inh RFP	CSC inhib	others
COc1ccc(C2N=C(N)N=C(N)N2c2ccc(C)cc2)cc1 (stereo not given)	i	-13	7	-2	-34	-10	-2	17
CCc1ccc2c(c1)NC(=O)C2(C)Cc1ccccc1OC (stereo not given)	.	-2	.	.	-1	1	-3	.

Going on with the list.
SMILES	Rce1 inh	Yeast UUG start	PABP FP inh	eIF4H inh	Env fusion inh	MT1-MMP act inh	MT1-MMP act inh RFP	CSC inhib	others
O=C(c1cc2nc(-c3ccco3)cc(C(F)(F)F)n2n1)N1CCc2ccccc2C1	i	.	-1	-3	.	-2	-9	5
CCC(Sc1nc2ccccc2s1)C(=O)Nc1nnc(C)s1 (stereo not given)	i	-3	2	-1	40	-1	2	-2
COc1cccc(Oc2ncnc(N)c2[N+](=O)[O-])c1	i	.	10	2	-13	5	2	4
COc1ccc(-c2coc3cc(O[C@@H]4O[C@H](CO)[C@@H](O)[C@H](O)[C@H]4O)ccc3c2=O)cc1	.	-9	.	.	-121	6	1	-6
CCOc1ccc(CN2C(=O)c3ccccc3C2=O)cc1C(=O)N1CCC(C(N)=O)CC1	i	-9	-3	-5	.	-2	0	-1
COC(=O)/C=c1/sc2nc3ccccc3n2c1=O	i	-10	-6	-9	.	-7	-1	0
O=C1Nc2ccccc2C1Cc1ccccn1 (stereo not given)	i	.	0	-4	-3	0	4	-7
Cc1ccc(OCC(=O)N2CCc3ccccc3C2)c(C)c1	i	4	4	-14	-9	0	-7	2
O=S(=O)(NCc1ccccc1)c1ccc(Cl)c(S(=O)(=O)NCc2ccccc2)c1	i	-15	6	0	19	1	2	5
CCC(CC)C(=O)c1c[nH]c(C(=O)NCc2cccnc2)c1	i	-14	8	-17	4	-1	-2	-2
O=C(c1cccc([N+](=O)[O-])c1)N1CCN(c2ccccn2)CC1	i	-12	-11	8	-10	-1	-2	-12
COc1ccccc1CC(NC(C)=O)C(=O)NC1CCN(C(=O)c2ccc([N+](=O)[O-])cc2)CC1 (stereo not given)	i	.	5	-8	2	1	6	-25
CC1Cc2cc(/C(O)=C3/C(=O)C(=O)N(CCN4CCOCC4)C3c3ccc([N+](=O)[O-])cc3)ccc2O1 (stereo not given)	i	-11	17	1	15	4	6	-24
O=C(COc1ccc2ccccc2c1)NNC(=O)c1cnccn1	i	.	2	-8	-5	2	1	6
O=C(O)Cc1ccc(N=Nc2c(O)c(C(=O)O)cc3ccccc23)cc1	i	-5	45*	77*	-11	.	.	-8	eIF4H inh retest=92*;PABP FP inh retest=61*
COc1ccc(/C=N/NC(=O)c2cccc(Br)c2)cc1Cn1cc(Cl)cn1	i	-11	-11	-9	-149	-2	-10	.
CCCCCCOc1ccc(C(CC(N)=O)C(=O)O)cc1 (stereo not given)	i	-26	0	-1	5	-9	2	-8
CCC1OC23CCCCC2C(C#N)(C(=N)O3)C1(C#N)C#N (stereo not given)	i	-14	?	?	.	-11	12	1
Cn1c(SCC(=O)N2CCOCC2)nnc1-c1ccc(Cl)cc1Cl	i	-8	1	10	11	22	10	-8
O=C(CCc1ccccc1)N1CCN(c2ccc(F)cc2)CC1	i	.	-2	0	-5	0	-2	-3
CCOC(=O)c1cc2occc2n1CC(=O)N1CCN(C(=O)c2ccco2)CC1	i	-4	-2	2	.	-5	-4	-10
O=C(NC(=S)Nc1ccc(Cl)c(C(=O)O)c1)c1cccc(COc2ccccc2)c1	i	-28	2	6	-3	0	-1	0
COc1ccc(Nc2oc(COc3ccccc3F)nc2C#N)cc1	i	-4	-3	-10	27	-4	3	11
Cc1ccc(OCc2nc(-c3ccccc3)no2)c(C)c1	i	.	1	-7	.	2	0	4
N/N=C(\c1ccccc1)c1cc(Cl)ccc1N	i	-14	3	-6	1	0	0	-6
O=C(NCCCN1CCOCC1)c1cccc(S(=O)(=O)NCc2ccccc2)c1	i	-15	.	.	-18	3	2	-1
Oc1ccc(-c2nc(=S)[nH][nH]2)cc1	i	-31	-2	0	.	3	4	5
O=C(CCC(=O)OCC(=O)c1ccc([N+](=O)[O-])cc1)Nc1ccccc1Cl	i	-20	8	2	.	-3	1	4
Cn1c(CNC(=O)C2CCCCC2)cc2ccccc21	i	-5	6	1	-3	2	-1	-8
COc1cccc(-c2nc(CS(=O)(=O)CC(=O)NCCN3CCOCC3)c(C)o2)c1	i	-17	-8	-2	6	3	-1	-8
Cc1cccc(S(=O)(=O)Nc2ccc(-c3cn4ccccc4n3)cc2)c1	i	-18	4	-2	.	2	-4	-3
N#Cc1c(-c2cccs2)nc(SCc2ccc(Cl)cc2)[nH]c1=O	i	.	26	29	-12	-3	-1	.
Cc1cc(C)c(C)c(OCCn2ccnc2)c1	i	-1	4	-3	-14	-1	1	-4
CN(Cc1ccccc1)C(=O)c1nn2cccnc2c1Cl	i	5	-9	-4	4	-6	-5	-18
Fc1ccc(Nc2nnc(-c3ccncc3)s2)cc1Cl	.	-17	.	.	-26	1	-7	.
CC(=O)c1cccc(NC(=O)C(C)OC(=O)Cc2c[nH]c3ccccc23)c1 (stereo not given)	i	-6	.	.	1	-1	-1	-6
CC1CCC(C(C)C)C(OC(=O)Cn2c(-c3ccccc3)[n+](C)c3ccccc32)C1 (stereo not given)	i	2&-7	3&-9	-2&-12	69*	-25&-28	-35&-40	17&-3
Cn1c(CCNC(=O)c2ccc(Cl)c(Cl)c2)nnc1SCc1ccc(Cl)c(Cl)c1	i	-6	-11	-15	-13	8	-8	9
N#CCCN(C(=O)COC(=O)CCNS(=O)(=O)c1ccccc1)c1ccccc1	.	4	.	.	0	2	4	.
CCN(CC)CCn1c2c(c(SCC(=O)Nc3nccs3)nc1=O)CCCC2	i	.	.	.	-11	0	3	-4
CC(=O)Nc1ccc(C(F)(F)F)cc1Cl	i	3	-5	-4	-6	0	4	-13
Cc1cc(C)c(C(=O)OCC(=O)NCc2cccs2)c(C)c1	i	.	2	11	9	4	1	-2
Cc1cc[n+](CC[n+]2ccc(C)cc2)cc1	i	6	.	.	-31	2	5	0
COC(=O)C1CC(c2c(OC)cc(OC)cc2OC)=NO1 (stereo not given)	i	0	1	0	16	-1	2	-11
Cc1ccc2c(CSc3nnc(N)s3)cc(=O)oc2c1	i	-27	4	-3	.	-2	-2	-1
CC1(C)C(=O)Nc2ccccc2N1C(=O)COC(=O)c1cc([N+](=O)[O-])ccc1N	i	.	7	5	21	4	-2	-4
CCCCNc1c(-c2cccc(Sc3ccc(OC)cc3)c2)nc2ccccn12	.	-43	.	.	9	2	-15	78*
CCCc1ccc(C(C)NC(=S)NC2CCCCC2)cc1 (stereo not given)	i	-22	7	-3	30	-3	-13	-16
CCOC(=O)N1CCN(C(=O)C2CCN(C(=O)c3cc4sccc4n3CC)CC2)CC1	i	-1	-16	-5	15	-1	1	14
CCOc1cccc(/C=C/c2ccc3cccc(O)c3n2)c1OC	i	-18	-2	4	-55	1	-5	?
(continued)
SMILES	Rce1 inh	Yeast UUG start	PABP FP inh	eIF4H inh	Env fusion inh	MT1-MMP act inh	MT1-MMP act inh RFP	CSC inhib	others
Cc1ccc(-c2nnn(CC(=O)N(CC3CCCO3)C(C(=O)NCC3CCCO3)c3ccc(F)cc3)n2)o1 (stereo not given)	i	.	-13	-3	.	4	3	-8
CC1CCN(C(=O)CSc2nc(N)c(NC(=O)c3ccccc3)c(=O)[nH]2)CC1	i	-17	1	-1	2	-2	3	-4
COc1ccc2cc(OCC(=O)NNC(=O)Nc3ccc(C(C)=O)cc3)ccc2c1	i	-9	-62	-12	.	4	4	.
COc1cnc(-c2ccccn2)nc1Oc1ccc(F)cc1F	i	.	9	0	-5	-2	-2	-2
CC(C)(C)N=C1NC(=NC(C)(C)C)c2ccccc21	i	-26	-5	3	.	9	-2	23
CC(=O)N1CCN(Cc2nc3cc(NC(=O)c4ccccc4Cl)ccc3n2C)CC1	i	.	11	-10	-6	0	-3	-12
O=C(CCNC(=O)c1ccc([N+](=O)[O-])cc1)Nc1cc(Cl)ccc1N1CCOCC1	.	-2	.	.	2	1	3	5
Cc1noc(C)c1S(=O)(=O)N(C)C[C@H]1Oc2c(NC(=O)NC(C)C)cccc2C(=O)N([C@H](C)CO)C[C@@H]1C	.	8	.	.	-4	0	-1	.
C=CCn1c(CNS(=O)(=O)c2ccc(Cl)cc2)n[nH]c1=S	i	-15	-4	-7	3	7	-2	-15
CCNC(=S)N1CCN(S(=O)(=O)c2ccc(Cl)s2)CC1	.	-7	.	.	-7	-7	4	-8

Compound activity (PubChem BioAssay)
